Assay outcomes (PubChem BioAssay)
Choline anaer gr: inhibitors of anaerobic choline-dependent gram-negative bacterial growth | Gram-negative bacterium anaerobic choline minimal medium, absorbance growth; stronger effect = lower value; many inactives read as strong as hits in the columns shown | AID 1963822 | calls only | hit rate 0.2% among 55,000;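 active means growth z-score on choline under -2 at 7 or 20 h with little or no fall on glycerol, limits in tiers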;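 further: stock transfer was 300 nL into about 50 µL; the organism is E. coli; final concentration not given here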
Choline anaer gr early: second read-out of Choline anaer gr, no call of its own (marks repeat the call); z-score; measured here: choline growth z-score, timepoint 1;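 score of optical density at 7 h as mean of two plates; lower means less growth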
* marks the source's active call; other numbers are inactive results; i = inactive; & = joins results of further samples. These rows are one share of the data; the hit share may differ from the screen's.

Order of values: Choline anaer gr | Choline anaer gr early
Cc1ccc(-n2c(=O)c3cccnc3n2CC(=O)Nc2ccccc2Cl)cc1
→ i | 0.28
CC1(C)C(=O)N(CC(=O)Nc2ccc3c(c2)OCO3)c2ccc(S(=O)(=O)N3CCCC3)cc21
→ i | -0.47
COC(=O)C1=CN(C2CC2)c2cc(N3CCN(C(C)C)CC3)c(F)cc2S1(=O)=O
→ i | -0.52
O=C(O)c1cc(N2CCN(c3ccccc3F)CC2)nc2ccc(NC(=O)C3CC3)cc12
→ i | 0.24
COc1ccc(CNC(=O)C2(C)Cn3nc(C)cc3C(=O)N2c2cccc(OC)c2)cc1 (stereo unspecified)
→ i | -0.96
CC(C)NC(=O)C1CCCCN1S(=O)(=O)c1ccc(Br)cc1 (stereo unspecified)
→ i | 0.09
CC(C)(C)CC(C)(C)c1cc(Cc2cc(C(C)(C)CC(C)(C)C)cc(-n3nc4ccccc4n3)c2O)c(O)c(-n2nc3ccccc3n2)c1
→ i | 0.49
COc1ccc(-n2nc(C(=O)NC3CCCCC3)c3c4ccccc4n(C)c3c2=O)cc1Cl
→ i | 0.65
CC1CCN(CCNC(=O)c2nc(-c3ccc(S(=O)(=O)N4CCCCC4)cc3)no2)CC1
→ i | -1.4
CN1C(=O)c2ccc(NC(=O)CCc3nc(CSc4nc5ccccc5o4)no3)cc2C1=O
→ i | -0.1
O=C(Nc1ccc(Br)cc1)C1CCN(c2ccnc(-c3ccc(F)cc3)n2)CC1
→ i | 0.38
Cc1c(C(N)=O)nnn1-c1ccc(OCc2ccccc2)cc1
→ i | 0.67
O=C(NCCN1CCCC1)c1cccc(-c2nc(-c3cccc(F)c3)no2)c1
→ i | 0.61
COc1ccc(OC)c(NC(=O)c2cc(S(=O)(=O)N3CCC(C)CC3)cn2C)c1
→ i | -0.25
CC(C)CNC(=O)N1CCCN(S(C)(=O)=O)CC1
→ i | 0.94

The list goes on.
Order of values: Choline anaer gr | Choline anaer gr early
Cc1nn(C)c2nc(OCc3cccc(Br)c3)cc(C(F)(F)F)c12
→ i | -0.71
CCNC(=O)c1cccc(NC(=O)N2CCCCc3ccccc32)c1
→ i | -0.94
NS(=O)(=O)c1ccc(CCn2c(SCc3cccc(Cl)c3)nc3ccccc3c2=O)cc1
→ i | -0.52
CC(=O)c1cnc2c(C(=O)O)cnn2c1C
→ i | 0.56
CN1CCN(C(=O)C2CCN(c3ccc4cc(S(=O)(=O)N5CCCCC5)ccc4n3)CC2)CC1
→ i | -0.59
O=C(C1CCN(c2ncccc2-c2nc(-c3ccccc3)no2)CC1)N1CCOCC1
→ i | 0.98
CCS(=O)(=O)N1CCCC1c1cc(C)on1 (stereo unspecified)
→ i | -0.52
COc1ccc(S(=O)(=O)NC2CCN(C(=O)CN3C(=O)COc4ccc(Cl)cc43)CC2)cc1
→ i | 1.5
COc1ccc(-n2ccc(=O)c(-c3nc(-c4cccc(OC)c4OC)no3)n2)cc1
→ i | 0.12
COc1cc(OC)cc(OCC(O)Cn2c(Cc3ccccc3)nc3ccccc32)c1 (stereo unspecified)
→ i | 0.37
Cc1c(-c2nnc(C(=O)NC3CCCC3)o2)oc2c(C)cccc12
→ i | 0.91
CC1CCC(NS(=O)(=O)c2ccc3c(c2)CCN3C(=O)NC2CCCCC2)CC1 (stereo unspecified)
→ i | -1.5
COc1ccc(S(=O)(=O)N2CCc3cc4cccc(C)c4nc32)cc1Cl
→ i | 1.5
CC(=O)NCCNC(=O)CCc1nc2sc3c(c2c(=O)[nH]1)CCC(C(C)(C)C)C3 (stereo unspecified)
→ i | 0.95
O=C(CN1c2ccc(Br)cc2-c2ccccc2S1(=O)=O)NCCN1CCOCC1
→ i | 1.6

(further entries)
Order of values: Choline anaer gr | Choline anaer gr early
Cn1c(CNc2ccccc2)nc2ccccc21
→ i | -2.8
Cc1noc(C)c1C1CCCN1C(=O)c1cccc(F)c1 (stereo unspecified)
→ i | 1.1
CC1OC(Oc2c(-c3cc(O)c(O)c(O)c3)oc3cc(O)cc(O)c3c2=O)C(O)C(O)C1O (stereo unspecified)
→ i | 0.38
Cc1ccc(-c2cc(C(=O)N3CCN(C)CC3)no2)cc1C
→ i | -1.7
CCn1cc(CN2CCC(C(=O)N3CCOCC3)CC2)c2cc(OC)ccc21
→ i | -0.07
Cc1cc(C)cc(-n2nnc(C(=O)OCc3ccc(Cl)cc3)c2C)c1
→ i | 0.98
CCC(C(=O)NCCCN(CC)CC)N1C(=O)CCCc2ccccc21 (stereo unspecified)
→ i | 0.59
O=c1[nH]ncc(N2CCCCC2)c1Cl
→ i | -0.5
COc1ccc(Nc2cc(C(=O)NCCCN3CCOCC3)c3ccccc3n2)cc1OC
→ i | -1.9
Cc1ccccc1-c1noc(-c2nn(-c3cccc(F)c3)ccc2=O)n1
→ i | 0.09
CCCc1ccc(S(=O)(=O)N2CCc3c(c(COCc4ccccc4)nn3C)C2)cc1
→ i | 2.8
COC(=O)c1c(C)oc2ccc(O)c(CN3CCCC(C)C3)c12 (stereo unspecified)
→ i | -0.28
CC(=O)OC1C=C2C(Cl)=C[C@@H]3[C@H](CC[C@@]4(C)[C@H]3CC[C@]4(OC(C)=O)C(C)=O)[C@@]2(C)CC1 (stereo partly specified)
→ i | -0.53
Cc1ccc(S(=O)(=O)c2c(C)cc(C)n(CC(=O)Nc3oncc3-c3ccccc3)c2=O)cc1
→ i | -1
O=C(O)c1cc(N2CCN(CC(=O)N3CCOCC3)CC2)ccc1NC(=O)C1CCCC1
→ i | 0.46

Shown with bars between the fields: entries from further up
canonical_smiles | Choline anaer gr | Choline anaer gr early
O=c1[nH]ncc(N2CCCCC2)c1Cl | i | -0.5
COc1ccc(Nc2cc(C(=O)NCCCN3CCOCC3)c3ccccc3n2)cc1OC | i | -1.9
Cc1ccccc1-c1noc(-c2nn(-c3cccc(F)c3)ccc2=O)n1 | i | 0.09
CCCc1ccc(S(=O)(=O)N2CCc3c(c(COCc4ccccc4)nn3C)C2)cc1 | i | 2.8

Going on with the list:
Order of values: Choline anaer gr | Choline anaer gr early
Cn1nc(C(F)(F)F)cc1C(=O)N1CCCC1c1ccc(Cl)cc1 (stereo unspecified)
→ i | -0.38
COc1ccc2[nH]c3c(c2c1)CCNC3c1ccc(C)cc1 (stereo unspecified)
→ i | 0.1
CCOC(=O)C1=C(CN2CCn3cccc3C2C)NC(=O)NC1c1ccc(C)cc1 (stereo unspecified)
→ i | 0.26
Cc1nnc(-c2c(C)[nH]c(C)c2S(=O)(=O)NCc2ccco2)o1
→ i | -0.91
CC(C)CCNC(=O)N1CCC(C)(C(=O)NCc2ccc3c(c2)OCO3)CC1
→ i | 0.04
Cc1ccc(-c2cccc3c(C(=O)N4CCN(c5ccccn5)CC4)cc(C)nc23)cc1
→ i | -1.3
CCOc1ccccc1C(=O)N1CCCC(C)(C(=O)NCc2ccccc2C)C1 (stereo unspecified)
→ i | -0.77
Cc1cccc(-c2cnc(Nc3cccc(C(=O)Nc4cccc(Br)c4)c3)nc2)c1
→ i | 0.61
CCOC(=O)c1ccccc1NC(=O)Cn1nc2c(Sc3ccccc3)nccn2c1=O
→ i | 0.52
CCn1c(=O)n(-c2ccc(C)c(C)c2)c2nc(-c3c(C)cc(C)cc3C)nc(C(N)=O)c21
→ i | -0.14
CN1C(=O)Cc2cc(S(=O)(=O)CCC(=O)N3CCn4c3nc3ccccc34)ccc21
→ i | 0.51
CCN(CC)C(=O)C1CCN(S(=O)(=O)Cc2ccccc2)CC1
→ i | -1.1
C=CCn1c(C(CC)CC)nc2ccccc21
→ i | -0.25
Cc1ccc(C)c(NC(=O)CCc2nc(-c3cccnc3)no2)c1
→ i | -1.1
Cc1cccc(C(=O)Nc2nnc(S(=O)(=O)N3CCC(C)CC3)s2)c1
→ i | -0.45

Grouped by structure: those above containing two or more sulfur atoms.
Order of values: Choline anaer gr | Choline anaer gr early
NS(=O)(=O)c1ccc(CCn2c(SCc3cccc(Cl)c3)nc3ccccc3c2=O)cc1
→ i | -0.52
Cc1cccc(C(=O)Nc2nnc(S(=O)(=O)N3CCC(C)CC3)s2)c1
→ i | -0.45

Next section.
Order of values: Choline anaer gr | Choline anaer gr early
Cc1cccc(-c2nc(-c3ccc4c(c3)[nH]c(=O)n4C)no2)c1
→ i | -1.3
CNc1oc(-c2ccc(S(=O)(=O)N3CCCCC3)cc2)nc1C#N
→ i | 0.87
NC(N)=NN=Cc1c(Cl)cccc1Cl
→ i | -1
COc1ccc(OCC(O)Cn2c(C3CC3)nc3ccccc32)cc1 (stereo unspecified)
→ i | -0.14
Cc1sc(-c2nc(C(C)C)cs2)cc1S(=O)(=O)NCCCN1CCCC1
→ i | -0.33
COc1cc(C2c3c(-c4cc(C)ccc4O)n[nH]c3C(=O)N2CCCO)ccc1OCCC(C)C (stereo unspecified)
→ i | 0.73
Cc1ccc(-c2nnc(NC(=O)CN3CCN(S(=O)(=O)c4cc(C)c(C)cc4C)CC3)s2)cc1
→ i | 0.13
COc1ccc(OC)c(S(=O)(=O)NCC2(C)CCOCC2)c1
→ i | -0.15
COc1ccc2cc3n(c2c1)CC(C)(C(=O)NC1CCCCC1)N(CCN1CCCCC1C)C3=O (stereo unspecified)
→ i | 0.21
Cc1noc2ncnc(NCCN3CCCCC3C)c12 (stereo unspecified)
→ i | 0.73
Cc1cc(C)c(-c2n[nH]c3c2C(c2ccc(F)cc2)N(CC2CCCO2)C3=O)c(O)c1 (stereo unspecified)
→ i | -0.41
O=C(c1cccc(Cl)c1)N1CCc2nc(-c3ccccc3)sc2C1
→ i | -1.9
Cc1cc(C)c(S(=O)(=O)Nc2cccc(C(F)(F)F)c2)c(C)c1
→ i | -0.43
Cc1cccc(NC(=O)C2CCCN(S(=O)(=O)c3cn(C(C)C)cn3)C2)n1 (stereo unspecified)
→ i | 0.26
COc1cccc(C2Nc3ccccc3-n3cc4c(=O)n(C)c(=O)n(C)c4c32)c1OC (stereo unspecified)
→ i | 0.49

Three neighbouring records already listed, for reference:
Order of values: Choline anaer gr | Choline anaer gr early
Cc1cc(C)c(S(=O)(=O)Nc2cccc(C(F)(F)F)c2)c(C)c1
→ i | -0.43
Cc1cccc(NC(=O)C2CCCN(S(=O)(=O)c3cn(C(C)C)cn3)C2)n1 (stereo unspecified)
→ i | 0.26
COc1cccc(C2Nc3ccccc3-n3cc4c(=O)n(C)c(=O)n(C)c4c32)c1OC (stereo unspecified)
→ i | 0.49

(continued)
Order of values: Choline anaer gr | Choline anaer gr early
C=CCn1c(=O)c(C(=O)Nc2cccc(Cl)c2C)c(O)c2ccccc21
→ i | 1.2
COc1ccc(C(=O)Nc2cc3c(cc2SC(C)C)n(C)c(=O)n3C)cc1
→ i | -0.42
CCc1ccc(N2C=C(C(=O)OC)S(=O)(=O)c3cc(F)c(F)cc32)cc1
→ i | -1.5
CCc1cc(Nc2ccc(F)cc2Cl)n2ncnc2n1
→ i | 0.16
Cc1noc2c1C(c1ccc(C(C)C)cc1)C1=C(CC(c3ccc(O)cc3)CC1=O)N2 (stereo unspecified)
→ i | 0.41
CCOc1cc(-c2cccc(Cl)c2)nc2ccc(C(=O)NCc3cccc(OC)c3)cc12
→ i | -0.44
Cc1cccc(OCc2nc(C)c(C(=O)Nc3nccs3)s2)c1
→ i | -0.13
Cc1ccc(NC(=O)Cn2c(=O)n(Cc3nc(C)no3)c(=O)c3cc4c(cc32)OCO4)cc1
→ i | 1.3
CNC(=O)CN1C(=O)C2CCCCN2c2ccc(S(=O)(=O)N(C)C)cc21 (stereo unspecified)
→ i | -1.2
Cc1ccccc1-c1noc(-c2cc(-c3ccccc3)n[nH]2)n1
→ i | -0.14
CCS(=O)(=O)N1C[C@@H]2CN(S(=O)(=O)c3ccc(F)cc3)C[C@H](C1)O2
→ i | 0.58
CC1=C(c2ccc(C(C)C)cc2)S(=O)(=O)N(CC(=O)Nc2cc(C)cc(C)c2)C1=O
→ i | 1.2
CC(=O)[C@H]1CCC2C3CC=C4C[C@@H](OC(=O)CCC(=O)O)CC[C@]4(C)C3CC[C@@]21C (stereo partly specified)
→ i | 0.48
NC(=O)c1nsc2c(=O)n(CC(=O)NC3CCCC3)cnc12
→ i | 0.08
CCc1noc(-c2cccc(NC(=O)C3CC(=O)N(c4ccccc4)C3)c2)n1 (stereo unspecified)
→ i | -0.17

Additional compounds follow:
Order of values: Choline anaer gr | Choline anaer gr early
Cc1ccc(-c2nn3c(C4CCCCC4)nnc3s2)cn1
→ i | 1.1
Cc1nc2ccccc2n(CCC(=O)NCCN2CCOCC2)c1=O
→ i | -1.5
Cc1ccccc1-c1nc2scc(CCNC(=O)c3ccc(OC(C)C)cc3)n2n1
→ i | -0.27
CC1CCN(S(=O)(=O)c2ccc3nn(Cc4cc(F)cc(F)c4)c(=O)n3c2)CC1
→ i | 0.43
O=C(O)CCc1nnc2n(Cc3ccc(Cl)cc3)c(=O)c3ccccc3n12
→ i | 0.94
O=C1Nc2cc(C(=O)N3CCN(c4ccccn4)CC3)ccc2NC1CS(=O)(=O)Cc1cccc(Cl)c1 (stereo unspecified)
→ i | 0.31
CCOc1ccc(-n2ccc(=O)c(C(=O)Nc3c(C)n(C)n(-c4ccccc4)c3=O)n2)cc1
→ i | -0.93
CC1CCCN(S(=O)(=O)c2cc(C(=O)Nc3ccc(F)c(Cl)c3)n(C)c2)C1 (stereo unspecified)
→ i | 1
Cc1ccc(-c2cc(N3CCOCC3)n[nH]2)cc1
→ i | -0.52
COc1ccccc1Oc1cc(-c2ccc(C(=O)Nc3cccc(C)c3)cc2)ncn1
→ i | -0.67
C#CCCC[C@@H](O)CCCCCCCCCCC(=O)O
→ i | 0.03
CC1(C)Cc2[nH]c(=O)c(C(=O)O)cc2CO1
→ i | -0.75
Cc1ccc(C)c(CN2C(c3ccc(F)c(F)c3)Nc3ccccc3S2(=O)=O)c1 (stereo unspecified)
→ i | -0.13
CN1CCN(c2ccc3nc(-c4c(N)c5c(F)cccc5[nH]c4=O)[nH]c3c2)CC1
→ i | -1.6&-0.82
COC(=O)C(C)SC1=NS(=O)(=O)c2cc(Cl)ccc2N1 (stereo unspecified)
→ i | 0.77
NCc1ccc(S(N)(=O)=O)cc1
→ i | 0.29
CC(C)NC(=O)CCCCn1c(=O)c2ccccc2n(CC(=O)NCCc2ccc(Cl)cc2)c1=O
→ i | 0.27
